PK Bst = pyruvate kinase (B. stearothermophilus) modulation; partly purified Bacillus stearothermophilus pyruvate kinase, luminescence ATP production; ribose 5-phosphate activator present at AC10; Potency, µM; 51,000 tested, 1.2% active; in the data active means potency below about 11 µM; inconclusive means mostly about 12 µM to 25 µM; inactive means weaker than that;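 the screen sought inhibitors and activators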;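 further: potency means the concentration at half of the fitted maximal effect; scaled between full activation by ribose 5 phosphate and full inhibition by luteolin; about four in five hits inhibit and the cells do not say which; series up to 57 µM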
TsaE inh = inhibitors of E. coli YjeE (TsaE). P0AF67. purified YjeE, fluorescence polarisation of a bound ADP probe. Potency, µM. 71,000 tested, 0.05% active. AID 605; active = well fitted falling curve; inconclusive = weaker or top-dose-only fall, or a rising curve; inactive = flat or poorly fitted curve;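 further: top concentration of the series not given in the record; excess ADP was the control for the full effect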
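Purified YjeE (10 uM) with BODIPY Texas Red-labeled ADP probe (2 uM); compounds pin-transferred, 15 min at room temperature. Binding inhibition read as decreased fluorescence polarization; ADP titration as control.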
Numbers without * were called inactive; i = inactive; ? = inconclusive; . = no result given.

SMILES	TsaE inh	PK Bst
Cc1cc(Nc2ccc(C(=O)O)cc2)n2nc(C)nc2n1	i	.
CC1CCC2C(C1)c1sc(=O)[nH]c1SC2(C)C (stereo not drawn)	i	>57
COc1cc(Cl)c(S(=O)(=O)N2CC(C)OC(C)C2)cc1Cl (stereo not drawn)	i	>57
CCCCC1(CC)C(=O)NC(=O)NC1=Nc1ccc(OC)cc1 (stereo not drawn)	i	>57
CC(C)[C@@H](CC(=O)N[C@@H]1CCNC[C@H]1C(=O)N[C@H](CC(=O)N[C@@H](CCC(=O)O)CC(=O)O)Cc1ccccc1)NC(=O)C[C@H](CO)NC(=O)[C@@H]1CNCC[C@H]1N	i	.
COc1ccc(C(CC(=O)O)NC(=O)COc2ccccc2)cc1OC (stereo not drawn)	i	>57
COc1ccc(-n2c(=O)cc(N3CCCCCC3)[nH]c2=O)cc1	i	>57
Cc1cc(C)cc(-n2nnc(C(=O)NCc3ccco3)c2N)c1	i	>57
O=S(=O)(Nc1cccnc1)c1cc(Cl)ccc1Cl	i	.
N#Cc1cc2c(=O)n3ccccc3nc2n(Cc2cccnc2)c1=O	i	>57
CS(=O)(=O)N1CCC(C(=O)N2CCC(Cc3ccccc3)CC2)CC1	i	>57
Cc1cc(=O)oc(C)c1C(=O)N1CCN(C(c2ccccc2)c2ccccc2)CC1	i	>57
CCOC(=O)c1sc(=S)n(C)c1N	i	>57
COc1ccc(C(=O)O)cc1Nc1cc(C)nc2ncnn12	i	.
COc1ccccc1N1CCN(Cc2nc(N)nc(Nc3ccc(C)cc3)n2)CC1	i	>57
O=C(CSc1ncn[nH]1)NCCOc1ccccc1	i	.
Clc1ccccc1-c1nc(-n2ccnc2)c2ccccc2n1	i	.
O=C(O)c1ccc(CSc2nc3ccccc3o2)cc1	i	>57
CCn1c(=O)cc(OCC(=O)NCC2CCCO2)c2ccccc21 (stereo not drawn)	i	>57
C=CCNC(=O)Nc1ccc2oc(C)nc2c1	i	>57
CC(C)C[C@@H](CC(=O)N[C@@H](CCC(=O)O)CC(=O)O)NC(=O)[C@@H]1CNCC[C@H]1NC(=O)C[C@H](CCCN)NC(=O)C[C@H](Cc1c[nH]c2ccccc12)NC(=O)[C@@H]1CNCC[C@H]1N	i	.
CN(C)c1nc(OCCOC(=O)COc2ccc(Cl)cc2Cl)nc(N(C)C)n1	i	>57
O=C(C1CCCO1)N(c1cccc(Cl)c1)C1C=CS(=O)(=O)C1 (stereo not drawn)	i	>57
CCOC(=O)n1c(=O)oc2cc(S(=O)(=O)N3CCCCC3)ccc21	i	>57
O=C(c1ccc(Br)o1)N1CCN=C1SCc1cccc(F)c1	i	.

The results go on.
SMILES	TsaE inh	PK Bst
O=C1CCc2cc(S(=O)(=O)N3CCN(Cc4ccc5c(c4)OCO5)CC3)ccc2N1	i	>57
CC(C)CCN1CCNC(=O)C1CC(=O)Nc1ccc(F)cc1 (stereo not drawn)	i	>57
CN(Cc1ccccc1)C(=O)CNC(=O)Cn1cnc2ccccc2c1=O	i	>57
CCOC(=O)C1CCN(C(=O)c2ccc(Cl)c(Cl)c2)CC1	i	>57
COc1ccc(N2CCN(CCNC(=O)CCN3C(=O)COc4ccccc43)CC2)cc1	i	>57
CC(=O)c1cc2c(=O)c3cc(C)ccc3oc2nc1C	i	.
COc1ccc(OC)c(S(N)(=O)=O)c1	i	>57
Cc1nc2cc(NC(=O)Nc3ccc(N4CCOCC4)cc3)ccc2n1C	i	>57
CCOC(=O)C(Cc1ccccc1)NC(=O)CNC(C)=O (stereo not drawn)	i	>57
CCN(C(C)=O)c1nc(CSc2nnc(NC(C)C)s2)cs1	i	>57
C[C@H]1O[C@@H](O[C@H]2[C@@H](O)C[C@H](O[C@H]3[C@@H](O)C[C@H](O[C@H]4CC[C@@]5(C)[C@H](CC[C@@H]6[C@@H]5C[C@@H](O)[C@]5(C)[C@@H](C7=CC(=O)OC7)CC[C@]65O)C4)O[C@@H]3C)O[C@@H]2C)C[C@H](O)[C@@H]1O	i	.
COc1cc(OC)cc(-c2cc(NC(C)=O)n[nH]2)c1	i	.
C=CCOC(=O)C1=C(C)N=C2SCCC(=O)N2C1c1cccs1 (stereo not drawn)	i	>57
COc1ccc(-n2c(=O)c(C)nc3cnc(Oc4cccc(Cl)c4)nc32)cc1	i	.
CC(=O)c1c(NCCc2ccccc2)cc(C)oc1=O	i	>57
CC1CN(C(=O)CSc2ncnc3sccc23)CC(C)O1 (stereo not drawn)	i	>57
Nc1ccc2oc3ncccc3c(=O)c2c1	.	?
COCCn1c(=O)c(-c2ccc(OC)cc2)nc2cnc(Nc3cccc(OC)c3)nc21	i	.
CCN(CC)CCCn1c(=S)[nH]c2ccc(Cl)cc2c1=O	i	>11
Clc1ccccc1-c1ccc2ncnc(NC3CCNCC3)c2c1	i	.
COc1ccccc1NC(=O)C(C)NS(=O)(=O)c1ccc(F)cc1 (stereo not drawn)	i	>57
CCn1c(CNc2nc(-c3ccccc3)cs2)nnc1SCC(=O)NCc1ccco1	i	>57
O=C1CCc2nc3ccccc3c(=O)n2N1	.	>26
O=C(COC(=O)C1CC(=O)N(Cc2ccccc2)C1)Nc1ccc2c(c1)OCO2 (stereo not drawn)	i	>57
O=C(Nc1ccc(CN2CCOCC2)cc1)c1cc2ccccc2oc1=O	i	.

2 entries drawn at random from those above:
SMILES	TsaE inh	PK Bst
COc1ccccc1NC(=O)C(C)NS(=O)(=O)c1ccc(F)cc1 (stereo not drawn)	i	>57
Nc1ccc2oc3ncccc3c(=O)c2c1	.	?

Following part:
SMILES	TsaE inh	PK Bst
CNC(=O)c1cc2c(=O)n3cccc(C)c3nc2n1C	i	>57
CCC1SC(N)=NC1=O (stereo not drawn)	.	>26
O=S(=O)(Nc1ccc(S(=O)(=O)N2CCCCC2)cc1)c1cccs1	i	>57
Cn1c(=O)cc(SCC(=O)N2CCN(C(=O)c3ccco3)CC2)c2ccccc21	i	>57
O=C(CC1Sc2ncnn2C1=O)Nc1ccc(Br)cc1 (stereo not drawn)	i	.
Cc1cc(OCC(=O)N2CCOCC2)c(C(C)C)cc1Cl	i	>57
CN[C@@H]1[C@H](O[C@@H]2O[C@H](CO)[C@@H](N)[C@H](O)[C@@H]2O)O[C@H]2C[C@@H](N)[C@@H](O[C@H]3[C@@H](O)[C@H](O)[C@H](N)C[C@@H]3N)O[C@H]2[C@H]1O	i	.
CCCCN(CC)CCCNC(=O)CC1Nc2ccccc2NC1=O (stereo not drawn)	i	>57
CN1CCN(CCCNN)CC1	i	.
S=C(c1cccs1)N1CCCC1	i	>57
COc1ccccc1OCC(=O)NCc1ccco1	i	>57
Cc1ccccc1-c1cncnc1Nc1ccc(F)cc1	i	.
O=C1CC(c2ccc(F)cc2)Cc2nc(N3CCc4ccccc43)ncc21 (stereo not drawn)	i	>57
CSc1nsc(SCC(=O)Nc2ccccn2)n1	i	>57
Cc1ccc(C)n1-c1ccncc1	i	>57
CCOC(=O)C1CCCN(C(=O)Cn2sc3nc(C)cc(C)c3c2=O)C1 (stereo not drawn)	i	.
O=C1C(O)=C(O)C(=O)C(O)=C1O	i	.
CCOC(=O)CSc1nnc(CNC(=O)c2cccc(C)c2)n1-c1ccccc1OC	i	>57
Cc1ccc(-c2csc3ncn(/N=C/N(C)C)c(=O)c23)o1	i	>57
O=C(CNC(=O)c1cnccn1)Nc1ccc(F)c(F)c1F	i	>57
Cc1cc(=S)n(-c2ccccc2)n1C	i	.
O=C(c1cnn2c(C(F)(F)F)cc(-c3ccco3)nc12)N1CCc2ccccc2C1	i	>57
COc1ccc(OC)c(NC(=O)CSc2nnc(-c3ccco3)n2-c2ccccc2)c1	i	>57
C=CCn1c(N2C(=O)CC(Cc3ccccc3)C2=O)nc2ccccc21 (stereo not drawn)	i	>57
Cc1ccc(S(=O)(=O)N2CCN(C(=O)CCC(=O)NC3CCCc4ccccc43)CC2)cc1 (stereo not drawn)	i	>57

The list goes on.
SMILES	TsaE inh	PK Bst
CCOC(=O)CSc1nnc(Cn2c(=O)sc3ccccc32)n1C	i	.
O=C(c1ccc2c(c1)OCO2)N1CCCc2ccccc21	i	?
CCc1oc(C(=O)O)cc1COC	i	>57
CC(=O)Nc1ccc(S(=O)(=O)N2CCN(C(=O)N3CCCCCC3)CC2)cc1	i	>57
C/C(=N\O)C(=O)NCc1ccccn1	i	>57
C=C(Cl)COc1ccc2c(C)cc(=O)oc2c1	i	.
CCOC(=O)c1ccc(NC(=O)c2c(C)[nH]c(C(=O)OCC)c2C)cc1	i	>57
Cc1noc(C)c1C(=O)N1CCC2(CCCN(C(=O)Nc3ccccc3)C2)CC1	i	.
Clc1ccc(Cc2noc(-c3cccs3)n2)cc1	i	>57
COCCN1Cc2cccc(C(=O)Nc3ccc(S(=O)(=O)N4CCCCC4)cc3)c2C1=O	i	>57
O=C(CCCCCN1C(=O)C2C3C=CC(C3)C2C1=O)Nc1nccs1 (stereo not drawn)	i	.
CCN1CCCC1Cn1cnc2c([nH]c3ccc(Cl)cc32)c1=O (stereo not drawn)	i	.
COc1ccc(N2CCN(C(=O)CCCC3=NS(=O)(=O)c4ccccc4N3)CC2)cc1	i	>57
CCC(Sc1nc(C)cc(C)n1)C(=O)O (stereo not drawn)	i	.
OC(CN1C2=NCCCN2c2ccccc21)c1ccc(Cl)cc1 (stereo not drawn)	i	.
CC(C)OC(=O)c1sc2nc3c(cc2c1N)C(=O)CCC3	.	>26
COc1cccc(Cn2c(=O)c(-c3cn(C)c4ccccc34)nc3cncnc32)c1	i	.
CC(=O)c1ccc(NC(=O)C2CCC(C)(C(=O)O)C2(C)C)cc1 (stereo not drawn)	i	.
CCn1c(=O)cc(OCC(=O)N2CCc3ccccc32)c2ccccc21	i	.
COc1ccc(S(=O)(=O)N(Cc2ccccc2)Cc2nc3ccccc3c(=O)[nH]2)cc1	i	>57
COc1ccc(N(C(C)=O)C2C=CS(=O)(=O)C2)c(OC)c1 (stereo not drawn)	i	>57
CCOC(=O)C1C(=O)NC(N2CCOCC2)=NC1c1ccco1 (stereo not drawn)	i	>57
COc1ccc(S(=O)(=O)n2nc(-c3cc(OC)c(OC)c(OC)c3)cc2N)cc1OC	i	.
CC1(C)CC(=O)C=C(NCCN2CCN(C(=O)Nc3ccccc3)CC2)C1	i	>57
N#Cc1cccc(NC(=O)N2CC[C@@]3(CCCN(C(=O)c4ccncc4)C3)C2)c1	i	.

Grouped by structure: the entries above with bromine
SMILES	TsaE inh	PK Bst
O=C(c1ccc(Br)o1)N1CCN=C1SCc1cccc(F)c1	i	.
O=C(CC1Sc2ncnn2C1=O)Nc1ccc(Br)cc1 (stereo not drawn)	i	.

More results.
SMILES	TsaE inh	PK Bst
O=C(NCc1cccs1)c1nn2cccnc2c1Cl	i	>57
O=C(Oc1ccc(N(Cc2cccs2)C2=NS(=O)(=O)c3ccccc32)cc1)c1ccco1	i	>57
CC12CCC(C(=O)N3CCCc4ccccc43)(CC1=O)C2(C)C (stereo not drawn)	i	.
O=C(Nc1ccccc1C(F)(F)F)N1CCCC(O)C1 (stereo not drawn)	i	>57
CC(=O)Nc1ccccc1-c1ccc(C)o1	i	>57
Cc1noc(C)c1-c1cc(N(C)C)ncn1	i	.
Cc1ccccc1-n1c(SCC(=O)NCc2cccs2)nnc1-c1ccncc1	i	>57
COC(=O)C1=C(C)N(c2ccc(OC)c(OC)c2)C(=O)C1	i	>57
O=C(CSc1nc2c(cnn2-c2ccc(F)cc2)c(=O)[nH]1)N1CCCc2ccccc21	i	>57
COc1cc(CO)cc(Br)c1OCC(=O)O	i	.
CCCc1nc2oc3c(NCc4ccccn4)ncnc3c2c2c1COC(C)(C)C2	i	>57
CCOC(=O)c1c(NC(=O)CSc2nnc(CN3CCOCC3)n2C)sc2c1CCCC2	i	>57
Cc1cccc(-c2noc(Cc3ccc(Cl)cc3)n2)c1	i	>57
CCN(CC)c1ccc(NC(=O)CSc2nc(C)cc(=O)[nH]2)cc1	i	.
CCOC(=O)C1CCCN(c2c(NCCc3ccc(S(N)(=O)=O)cc3)c(=O)c2=O)C1 (stereo not drawn)	i	.
CCOC(=O)CSc1nc2ccccc2c(=O)n1CCN1CCOCC1	i	>57
OCCN1CCN(CCSc2ccccc2)CC1	i	>57
Cc1ccc(S(=O)(=O)NCCSc2nnnn2-c2ccc(C(N)=O)cc2)cc1	i	.
CC(C)CCNC(=O)[C@H](CC(C)C)NC(=O)[C@H]1O[C@@H]1C(=O)O	.	>26
C=CCn1c(SCC(=O)Nc2ccc(C(=O)OC(C)C)cc2)nnc1-c1cccs1	i	>57
Cc1cc2oc(=O)cc(CN3CCN(S(=O)(=O)c4ccc5c(c4)OCCO5)CC3)c2cc1C	i	>57
Cc1cc(=O)oc2cc(NC(=O)CCCC(=O)O)ccc12	i	>57

Part of the list above, with two lines to a compound:
Every second line gives: TsaE inh, PK Bst
CCOC(=O)C1CCCN(c2c(NCCc3ccc(S(N)(=O)=O)cc3)c(=O)c2=O)C1 (stereo not drawn)
  i, .
CCOC(=O)CSc1nc2ccccc2c(=O)n1CCN1CCOCC1
  i, >57
OCCN1CCN(CCSc2ccccc2)CC1
  i, >57

An excerpt; rates above refer to the full screens.
